Compound activity (PubChem)
AmpC nodet inh: inhibitors of E. coli AmpC beta-lactamase without detergent | AmpC nitrocefin hydrolysis, absorbance 480 nm, no detergent; potencies from a single point are estimates | Potency, µM (doses to about 28.7 µM), without a hit: top-dose activity change, negative = inhibition | actives 1.8% (n = 71,000); active = falling curve, for most hits resting on a single point; inconclusive = weak or doubtful change; inactive = flat or rising curve; further: % of control where 0% means no effect; about half of the hits show no inhibition at the top dose; a quarter of the inactives give rising signals
Target sequence (P00811 whole entry, looked up): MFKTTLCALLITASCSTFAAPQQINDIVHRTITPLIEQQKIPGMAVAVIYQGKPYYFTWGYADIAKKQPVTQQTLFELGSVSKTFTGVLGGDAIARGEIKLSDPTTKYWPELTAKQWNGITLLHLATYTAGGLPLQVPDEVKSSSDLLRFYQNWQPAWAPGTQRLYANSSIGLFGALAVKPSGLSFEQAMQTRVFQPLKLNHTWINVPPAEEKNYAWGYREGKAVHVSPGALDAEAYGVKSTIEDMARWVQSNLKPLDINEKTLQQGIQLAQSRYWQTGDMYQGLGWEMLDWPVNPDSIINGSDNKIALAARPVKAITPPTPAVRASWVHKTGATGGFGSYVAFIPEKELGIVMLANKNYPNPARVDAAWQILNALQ
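AmpC, 20 mM phosphate pH 7.0; 15 min cpd preinc, RT; start with nitrocefin (800 uM stock); A480 kinetic read, 20 s intervals, 4 min. No-enzyme wells = negative control.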
The depositor's hits bear a star; ? = inconclusive; & = joins results of further samples; [ ] = another dose, or the depositor's remark. Potency means the concentration at half of the fitted maximal effect. Only part of the results is shown; count on the stated rates, not on these rows.

SMILES | AmpC nodet inh
COc1ccc(OC)c(NC(=O)CCN2CC(C)OC(C)C2)c1 (centres undefined) | 0%
CC(=O)Nc1ccc(C(=O)CS(=O)(=O)c2ccc(C)cc2)cc1 | 2%
COc1ccccc1CNC(=O)C1COc2ccccc2O1 (centres undefined) | -3%
CC(C)C(NC(=O)c1ccccc1)C(=O)NCc1ccccn1 (centres undefined) | 3%
CC1(C)CN=C(Nc2ccccc2C(F)(F)F)S1 | -12%
FC(F)(F)c1ccccc1-c1cncnc1-n1ccnc1 | 18%
CCC(=O)N1C(=O)CCN(C(C)=O)c2ccccc21 | 0%
COCCOC(=O)C1=C(C)NC(C)=C(C(=O)OC(C)C)[C@@H]1c1cccc([N+](=O)[O-])c1 | 98%&49%
CCOC(=O)C1CCN(c2cc(=O)n(-c3ccccc3Cl)c(=O)[nH]2)CC1 | 7%
CCn1c(Cc2ccccc2)nnc1SCC(=O)NC(C)(C)C | 3%
Cn1c(C2CCCN2C(=O)OC(C)(C)C)n[nH]c1=S (centres undefined) | 0%
Oc1cc(Cl)cc(Cl)c1 | 0%
COc1cc(NC(=O)c2ccc(Br)o2)c(C(=O)O)cc1OC | -8%
CC(C(=O)N1CC2(C)CC1CC(C)(C)C2)N1C(=O)c2ccccc2C1=O (centres undefined) | 59%
c1cncc(-c2nnc(SCCSc3nnc(-c4cccnc4)o3)o2)c1 | -8%
Cc1cc(C)nc(SCC(=O)NC2=NC(=O)C(C)S2)n1 (centres undefined) | -1%
O=C(O)c1ccc(CSc2nnnn2C2CCCCC2)cc1 | -14%
Cc1nn(Cc2ccccc2)c(C)c1CCC(=O)O | -5%
CCCC(=O)N(c1ccc(OC)cc1)C1C=CS(=O)(=O)C1 (centres undefined) | -3%
Cn1c(C(=O)N2CCN(C(=O)c3ccco3)CC2)cc2c(=O)n3ccccc3nc21 | 12%
CCOC(=O)C(C)n1cnc2c(cnn2-c2ccc(Cl)cc2)c1=O (centres undefined) | 25%
CCCCNC(=O)C1CC(=O)N(CCC(C)C)C1 (centres undefined) | 5%
Oc1ccc2c3c1O[C@H]1c4[nH]c5c(c4C[C@@]4(O)[C@@H](C2)N(CC2CC2)CC[C@]314)C[C@]1(O)[C@H]2Cc3ccc(O)c4c3[C@@]1(CCN2CC1CC1)[C@@H]5O4 | 23%
NS(=O)(=O)c1ccc(NC(=O)CCc2ccccc2)cc1 | -11%
COc1ccc(C2CC(=O)N3CN(c4ccc(C)c(Cl)c4)CSC3=C2C#N)cc1 (centres undefined) | 2.5µM*[single pt active]
COc1ccccc1C1=NOC(Cn2c(=O)c3c(ncn3C)n(C)c2=O)C1 (centres undefined) | 6%
Cc1cc(O)c(C(C)C)cc1NC(=O)Nc1cccc2ccccc12 | -4%[5.75 µM]
COc1ccc2c(c1)c(=O)oc1cc(OCC(=O)NC3CC3)ccc12 | 11%
Cc1nnc(SCCC(=O)Nc2nc(-c3ccccc3)ns2)s1 | ?
COc1ccc(Nc2nc(N)nc(CN3CCOCC3)n2)cc1 | -11%
S=C(NC1CCCCC1)N1CCC([C@H]2C=NC=N2)CC1 | -5%[12.8 µM]
O=C1CC(C(=O)Nc2nccs2)C(c2ccccc2)O1 (centres undefined) | 1%
COCCN(C(C)=O)c1nnc(-c2ccccn2)s1 | 6%
FC(F)(F)c1ccc2c(c1)NP(=S)(N1CCOCC1)c1nccn1-2 (centres undefined) | 2%
CCN1C(=O)CSc2ccc(C(=O)NCc3ccco3)cc21 | -11%
Cc1ccc(OCCN2CCN(C(=O)CCC(=O)Nc3nnc(C(C)C)s3)CC2)cc1 | -9%
COC(=O)c1c(NS(=O)(=O)c2cccs2)sc2c1CCCC2 | -12%
CCCCN1c2ccccc2N(CCCO)c2cc(C)nnc21 | 16%
COc1cc2c(cc1OC)C(=O)Cc1ccc3c(c1CN(C)CC2)OCO3 | 0%
COc1ccccc1N1CCSC1C(N)=O (centres undefined) | -7%
O=C(NC1CCN(C(=O)N2CCOCC2)CC1)c1ccccc1 | -2%
N#Cc1ccc(NC(=O)C2CC(c3ccc(F)cc3)=NO2)cc1 (centres undefined) | -14%
CC(C)C(=O)N1CCN(c2ccccc2N)CC1 | 11%
COc1ccc(NC(=O)NC2(C(=O)N3CCCCCC3)CCCCC2)cc1 | 2%
COCCSc1nnc(NC(=O)CSc2ccccc2)s1 | -6%
CCOC(=O)C1CCN(C(c2cc3ccc(C)c(C)c3[nH]c2=O)c2nnnn2C2CCCCC2)CC1 (centres undefined) | 74%
CCCCCCCC(=O)O[C@H](CC(=O)O)C[N+](C)(C)C | 5%
CCOc1ccc(OCC)c(S(=O)(=O)N2CCCCC2)c1 | 18%
COc1ccccc1CN1CCCC2(CCN(C(=O)c3cnccn3)CC2)C1 | 9%
CN(C)S(=O)(=O)c1ccc2c(c1)C(CC(=O)O)OC2=O (centres undefined) | -1%
O=C1c2ccccc2[C@@H]([C@@H]2c3ccccc3C(=O)c3cc(Br)ccc32)c2ccc(Br)cc21 | -4%[5.75 µM]
COc1ccc(C(c2sc3nc(C)nn3c2O)N2CCC(O)CC2)cc1OC (centres undefined) | 18%
CC(C)C1Nc2ccc(S(N)(=O)=O)cc2C2C=CCC21 (centres undefined) | -14%
CN1CCCC2(CCN(C(=O)Oc3ccccc3)CC2)C1 | 0%
CS(=O)(=O)N(CC(=O)N1CCN(c2ccccc2F)CC1)c1ccc2c(c1)OCCO2 | 56%
CCCCOC(=O)c1ccc(O)cc1 | -10%
COc1ccccc1CNc1nc(-c2ccc(N(C)C)cc2)nc2ccccc12 | -5%
COc1cc(NC(=O)c2ccc(NS(=O)(=O)c3c(C)noc3C)cc2)cc(OC)c1 | -20%
CC(C)Sc1nc2sc3c(c2c2nnc(SCC(=O)NCc4ccco4)n12)CCCC3 | 58%
CC(C)(O)c1cn(-c2nonc2N)nn1 | -7%

The results go on.
SMILES | AmpC nodet inh
Cc1ccc(Cn2nnc3c(=O)n(CC(=O)N4CCCc5ccccc54)cnc32)cc1 | 17%
COc1cccc(OCC(=O)Nc2c(C(=O)Nc3ccc(OC)cc3OC)oc3ccccc23)c1 | -15%
Cn1c(=O)oc2cc(S(=O)(=O)Nc3ccc(Cl)cc3F)ccc21 | -1%
O=C1c2ccccc2C(=O)N1CCc1nc2ccccc2c(=O)n1Cc1ccco1 | 24%
CCOC(=O)C1CCCN(S(=O)(=O)c2ccc(C)cc2)C1 (centres undefined) | 7%
CCOc1ccccc1NC(=O)c1cc(S(=O)(=O)N2CCC3(CC2)OCCO3)ccc1F | 110%
Cn1c(C(=O)N2CCN(C(=O)c3ccco3)CC2)cc2c(=O)n(C)c3ccccc3c21 | 79%
COC(=O)Cn1c(CN(Cc2ccccc2)Cc2ccccc2)nc2c1c(=O)[nH]c(=O)n2C | 99%
c1cncc(CNc2nc(-c3ccoc3)nc3ccccc23)c1 | 71%
Cc1ccc(-n2nnnc2SCC(=O)Nc2cccc(NC(=O)c3ccco3)c2)cc1C | -11%
COc1ccc(-n2c(C)cc(=O)c3c2CC(C)(C)CC3=O)cc1 | -5%
O=C(O)C12CC3(C(=O)O)CC(C(=O)O)(CC(C(=O)O)(C1)C3=O)C2=O | 4%[5.75 µM]
CC1CN(Cc2nc3c(c(=O)n(C)c(=O)n3C)n2CC(O)CO)CC(C)O1 (centres undefined) | -8%
C=C[C@@H]1CN2CC[C@H]1C[C@H]2[C@H](O)c1ccnc2ccccc12 | 2%[5.75 µM]
Cn1nnnc1SCc1nnc(-c2ccc(Cl)cc2)o1 | 2%
O=C1CCCCCN1CSc1nc2ccccc2s1 | 24%
Cn1c(O)c(C=NCCCCCC(=O)O)c(=O)n(C)c1=O | 10%
CCOC(=O)C1CCCN(S(=O)(=O)c2cc(OCC(N)=O)c(C)cc2Cl)C1 (centres undefined) | 72%
O=C(NC1CCCC1)C(c1ccc(N2CCOCC2)cc1)N(Cc1ccccc1)C(=O)c1ccco1 (centres undefined) | 61%
Cc1cccc(-n2c(SCC(=O)NCc3ccco3)nc3ccccc3c2=O)c1 | 0%
CCOC(=O)Cc1csc(-n2sc3ccccc3c2=O)n1 | 6%
CCN(CC(=O)Nc1ccc(OC)c(OC)c1)S(=O)(=O)c1ccc(C)cc1 | 35%
O=C1c2cccc([N+](=O)[O-])c2C(=O)N1c1ncn[nH]1 | 2%[5.75 µM]
COC(=O)C1=C(C)NC(C)=C([N+](=O)[O-])[C@@H]1c1ccccc1C(F)(F)F | 7%
Cn1nc(-c2ccc(Cl)cc2)c2cc(C(=O)NCC3CCCO3)sc21 (centres undefined) | 150%
COc1ccc2[nH]cc(CCNc3cc(-c4cccc(C#N)c4)ncn3)c2c1 | 13%
Cc1nc2n(c(=O)c1CCN1CCC(c3noc4cc(F)ccc34)CC1)CCCC2 | 3%[12.8 µM]
CCOC(=O)COc1ccc(C(=O)c2ccccc2)c(O)c1 | 6%
O=C(CSc1nc2sc3c(c2c(=O)[nH]1)CCCC3)NCCO | 33%
COc1ccc2[nH]cc(CCNc3ncncc3-c3ccccc3Cl)c2c1 | -5%
CCCCCCCCCCCC[N+](C)(C)CCOc1ccccc1 | 176%
CC1(C(=O)NC2CCCCCCC2)CCC(=O)N1Cc1ccco1 (centres undefined) | 11%
CCc1ccccc1NC1=NCC(=O)N1Cc1ccc2c(c1)OCO2 | 27%
O=C(CN1C(=O)NC2(CCCCCCC2)C1=O)NC(=O)NCc1ccco1 | 0%
O=C(c1ccncc1)c1ccc(N2CCN(C3CC(=O)N(Cc4ccccc4)C3=O)CC2)cc1 (centres undefined) | 128%
CCn1nc(NC(=O)c2ccncc2)c2cc3cc(C)ccc3nc21 | 105%
FC(F)(F)c1nnc2sc(-c3cccs3)nn12 | -3%
O=C(CCCCn1c(=O)c2ccccc2n(CC(=O)Nc2ccccc2)c1=O)NCc1ccco1 | -7%
O=C(c1n[nH]c2ccccc12)N1CCN(S(=O)(=O)c2ccc3ccccc3c2)CC1 | -20%
COCCCn1c(C(C)C)nc2oc3cc(OC)ccc3c(=O)c2c1=O | 14%
CN1C(=O)N(C)C(=O)C(CCc2ccccn2)(CCc2ccccn2)C1=O | 10%
O=c1[nH]c2cc3c(cc2cc1C(c1nnnn1CC1CCCO1)N1CCCC1)OCO3 (centres undefined) | -16%
NC(=O)Nc1ccc(Oc2c(F)c(F)c(F)c(F)c2F)cc1 | 3%
COc1ccc(Cl)cc1N=Nc1ncc[nH]1 | 1%
O=C(NC1CCCC1)c1ccc2nc[nH]c2c1 | -4%
CC(NC(=O)C(c1ccccc1)c1ccccc1)C(=O)O (centres undefined) | -1%
Cc1c(C(C)NC(=O)Nc2ccc(F)cc2F)cnn1C (centres undefined) | 6%
CC(=O)Nc1c(C)cc(OCC(=O)O)cc1C | -1%[5.75 µM]
COc1cccc(C(c2nnnn2C(C)(C)C)N2CCN(C3CCCCC3)CC2)c1OC (centres undefined) | 23%
CC1Cc2ccccc2N1C(=O)CSc1nnc(NC(=O)Cc2cccs2)s1 (centres undefined) | 13µM*[single pt active]
C=CCn1c(O)c(CN2CCN(Cc3ccccc3)CC2)c(C)c(C#N)c1=O | -13%
CCC(C)(C)NC(=O)CN(C(=O)CNS(=O)(=O)c1ccc(C)cc1)c1ccc2c(c1)OCCO2 | 29%
O=C(NCCc1c[nH]c2ccccc12)C1Cc2ccccc2CN1C(=O)c1ccco1 (centres undefined) | 14%
Cn1c(=O)c2c(nc(N3CCN(Cc4ccccc4)CC3)n2CCSc2ncccn2)n(C)c1=O | -1%
CN(C)CCCNc1c2c(c(C#N)c3nc4ccccc4n13)CCC2 | -11%
c1ccc2c(c1)nnn1c3ccccc3nc21 | -10%
CCn1cc(C(=O)NCc2ccco2)c(=O)c2cc(S(=O)(=O)N3CC(C)CC(C)C3)ccc21 (centres undefined) | 85%
CCCCCn1c(N)c(C(=O)NCCN2CCOCC2)c2nc3ccccc3nc21 | 152%
CC1(C)CC(=O)C(C=NCCN2CCN(C(=O)Cc3ccccc3)CC2)=C(O)C1 | 49%
O=C(c1ccccc1)c1ccc(C(=O)O)c(C(=O)O)c1 | -11%
CCc1cccc(Nc2cc(C)nc3ncnn23)c1 | 7%
O=C(O)CCC(=O)Nc1ccc(S(=O)(=O)Nc2nccs2)cc1 | -7%[12.8 µM]
Cc1csc(=N)n1CC(=O)N1CCc2ccccc21 | -14%
